# Beta cell apopt = beta cell apoptosis inhibition. INS-1E cytokine-induced death, ATP luminescence, 48 h; percent of positive-control rescue, neutral wells zero. protection from apoptosis, % (concentration not given with the values). 300,000 compounds, 0.8% hits. AID 435005;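 active means all replicates at 75% or more, or half of them and the mean; inconclusive means half reach 75% but not the mean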;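 further: 0% = cytokine-treated negative control wells and 100% = positive control rescue; higher means more ATP so stronger rescue from cytokine killing; wells of about 40 µL received 100 nL stock; the first replicate is given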
# T cruzi repl = T. cruzi replication inhibition | inhibition, % (concentration not given with the values) | T. cruzi beta-gal in NIH3T3, luminescence, 90 h | 300,000 compounds, 1.4% hits;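 active means mean inhibition across valid replicates above about 55%, limit read from the data; inconclusive means mean below that limit but half or more replicates reach it; inactive means mean below it, under half of replicates reach it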;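 further: signal also drops with host cell toxicity which is not excluded here; 0% = plate median of DMSO wells and 100% = zero luminescence signal; higher percent means less beta-gal luminescence so fewer parasites; stock transfer was 50 nL into about 50 µL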
# ALR H2O2 inh = human ALR oxidase inhibition via reduced H2O2 | inhibition, % (no concentration beside the values) | AID 485317 | 290,000 compounds, 3.8% hits | purified ALR, DTT oxidation, H2O2 HRP-luminol luminescence;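 active means mean and each replicate at 75% or more; inconclusive means only one of the two met; inactive means neither met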;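 further: stock transfer was 7.5 nL into about 7.5 µL; 0% = neutral wells and 100% = wells with inactivated enzyme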
# Target sequence (P55789 whole entry, looked up): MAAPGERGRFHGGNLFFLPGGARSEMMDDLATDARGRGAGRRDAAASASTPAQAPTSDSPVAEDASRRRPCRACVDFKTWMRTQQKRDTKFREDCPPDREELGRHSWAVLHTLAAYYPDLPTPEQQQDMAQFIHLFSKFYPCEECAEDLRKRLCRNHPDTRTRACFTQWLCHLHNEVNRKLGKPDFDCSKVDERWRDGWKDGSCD
# rRNA inh HTS = inhibitors of bacterial rRNA selective over humanized ribosomes; AID 720706; E. coli WT GFP vs humanized-ribosome RFP mutants, fluorescence, 24 h; active compounds read low; DMSO median 0, no signal -100; GFP signal change (wild-type ribosome), % (concentration not given with the values); 350,000 compounds, 1.6% hits;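 active means significant combined selectivity score with lowered wild-type GFP, culture density cut under 30%, mutant RFP and density less affected; inactive means any of these conditions unmet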; further: one replicate is shown; some compounds called inactive have numbers as strong as hits
# AF4-AF9 inh = blocks AF4 peptide binding to human AF9; P42568; AlphaScreen, biotin-AF4 peptide binding to FLAG-AF9; inhibition, % at 10 µM; 350,000 compounds, 0.47% hits; AID 651704;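 active means every replicate reaching a set inhibition limit, whatever the replicate mean, cut at about 25% in these data; inconclusive means mean inhibition reaches that limit but some replicates miss it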;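 further: 0% = plate neutral control median and 100% = total signal loss; the record names both 10 and 1 µM as test concentration; the first replicate is given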
# Target sequence (P42568 whole entry, looked up): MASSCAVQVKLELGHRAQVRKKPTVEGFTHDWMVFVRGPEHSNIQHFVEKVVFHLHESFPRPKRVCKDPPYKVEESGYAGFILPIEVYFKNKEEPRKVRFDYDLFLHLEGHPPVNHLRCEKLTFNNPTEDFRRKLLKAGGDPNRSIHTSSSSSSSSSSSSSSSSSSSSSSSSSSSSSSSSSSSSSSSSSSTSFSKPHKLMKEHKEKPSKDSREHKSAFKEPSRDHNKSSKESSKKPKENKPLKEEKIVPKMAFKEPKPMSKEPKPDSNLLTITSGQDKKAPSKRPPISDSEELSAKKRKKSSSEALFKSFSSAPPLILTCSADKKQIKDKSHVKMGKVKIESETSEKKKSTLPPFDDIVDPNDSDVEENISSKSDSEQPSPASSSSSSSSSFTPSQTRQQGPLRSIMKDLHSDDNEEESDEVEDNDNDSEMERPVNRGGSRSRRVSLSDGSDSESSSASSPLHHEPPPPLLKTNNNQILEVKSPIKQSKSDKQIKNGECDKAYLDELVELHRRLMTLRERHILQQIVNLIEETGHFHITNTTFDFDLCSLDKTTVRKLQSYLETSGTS
# RanGTP-Impb inh = inhibitors of RanGTP-importin-beta interaction, primary screen, biochemical, FRET, CFP-Ran, YFP-importin-beta, homogeneous; cell-free CFP-Ran/YFP-importin-beta FRET ratio; inhibition, % (test concentration not listed); 300,000 compounds, 1.1% hits; AID 2216;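 active means most replicates above 15%; inconclusive means exactly half above 15%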;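 further: 0% = DMSO wells and 100% = Ran loaded with GDP instead of GTP; wells of about 40 µL received 100 nL stock; the first replicate is given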
# FGF22 binding = shifts melting point of recombinant human FGF22; calls only at 9.99 µM; recombinant FGF22 thermal shift, SYPRO orange fluorescence; percent of sucrose octasulfate shift, DMSO zero; Q9HCT0; 340,000 compounds, 1.5% hits;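 active means melting point raised past a set limit in the mean and every replicate; inconclusive means no clear call; three in four hits are not shown here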
# Target sequence (Q9HCT0 whole entry, looked up): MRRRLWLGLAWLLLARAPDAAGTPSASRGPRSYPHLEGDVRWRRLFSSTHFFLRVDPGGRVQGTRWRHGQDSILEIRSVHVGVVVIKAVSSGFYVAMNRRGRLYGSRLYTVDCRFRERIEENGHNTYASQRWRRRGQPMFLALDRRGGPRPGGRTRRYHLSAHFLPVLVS
# Calb FLC = C. albicans growth modulation with fluconazole; growth inhibition, % (concentration not given with the values); C. albicans CaCi-2 (fluconazole-resistant clinical isolate) + fluconazole, Alamar Blue growth, 48 h; 300,000 compounds, 0.57% hits;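 active means most replicates above 75%; inconclusive means exactly half above 75%; inactive means most below 75%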;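 further: all wells also contain fluconazole at 8 µg/ml as a sub-toxic cotreatment; 0% = median of DMSO wells and 100% = median of geldanamycin control wells; wells of about 8 µL received 7.5 nL stock; the first replicate is given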
# rRNA inh HTS OD600 = second read-out of rRNA inh HTS, no call of its own (marks repeat the call); OD600 change, %; measured here: OD600 growth;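 optical density of the mix in the first replicate; 0 = DMSO median and -100 = no signal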
# rRNA inh HTS RFP = recorded beside rRNA inh HTS, whose call it bears; RFP signal change, %; measured here: RFP humanized mutant strains;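 first replicate; 0 = DMSO median and -100 = no signal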
# An asterisk follows results filed as active; i = inactive; ? = inconclusive; . = no result given; + = active, no number; & = joins results of further samples.
(1) CCCCCCC1C(C#N)=C(N)OC2=C1C(=O)CCC2 (stereo not drawn)
(2) CC#CCN(CC#CC)S(=O)(=O)c1ccc(-n2cnnn2)c(OC)c1
(3) Fc1cccc(NC(=S)NCCc2ccccc2)c1
(4) O=C(Nc1cccc(Cl)c1)Nc1cc(S(=O)(=O)N2CCCCC2)ccc1Cl
(5) Cc1nc2ccc(S(=O)(=O)NCC(=O)N3CCCCC3)cc2s1
(6) COc1ccc(OC)c(NC(=O)Cn2c(C)nc3ccccc3c2=O)c1
(7) O=C(NC(=O)c1c(F)cccc1F)O/N=C1\CCCc2occc21
(8) Cc1cc(C(=O)COC(=O)c2cccn2C)c(C)n1Cc1ccco1
(9) CCOC(=O)C1=C(C)NC(C)=C(C(=O)OCC)C1C(=O)OCC(=O)N1CCc2ccccc21
(10) CN(c1ccc(OCC(=O)OCC(=O)Nc2cccc([N+](=O)[O-])c2)cc1)S(=O)(=O)c1ccc(F)cc1

compound no.	1	2	3	4	5	6	7	8	9	10
Beta cell apopt	-3	-2	5	51	-8	.	-1	2	-2	2
T cruzi repl	4	-4	-29	55*	-2	-9	-11	15	-5	-9
ALR H2O2 inh	33	0	-5	-2	-15	-25	-6	0	.	1
rRNA inh HTS	2	.	-17	-61	.	-8	17	-14	.	-3
rRNA inh HTS OD600	-6	.	-26	-79	.	2	-3	-12	.	6
rRNA inh HTS RFP	3.2	.	1.9	-20	.	-4.5	1.4	2.1	.	3.9
AF4-AF9 inh	1.4	.	-0.9	3.7	.	-0.2	-0.8	4.3	.	-1.3
RanGTP-Impb inh	?	3.0	-1.8	2.0	-0.1	-0.2	-0.8	-1.8	-53	-3.9
FGF22 binding	i	.	+	i	.	i	i	i	.	i
Calb FLC	-6	0	-60	-18	-4	0	-6	14	-2	-5

(11) C#CCOCCOCCOCCNc1nc(N2CCN(C(=O)C([C@@H](C)CC)n3cc(C(N)Cc4ccc(O)cc4)nn3)CC2)nc(N2CCN(C(=O)[C@H](CCC(=O)O)n3cc(C(N)[C@H](C)CC)nn3)CC2)n1 (stereo partly drawn)
(12) Cn1c(CCN2CCOCC2)nc2cc(NC(=O)COc3ccc(Cl)cc3)ccc21
(13) CC[C@H](C)[C@H](NC(N)=O)C(=O)Nc1ccc(NC(C)=O)cc1
(14) CCCc1cc(=O)[nH]c(/N=C(/NC(=O)C(C)N2C(=O)c3ccccc3C2=O)Nc2ccccc2)n1 (stereo not drawn)
(15) COc1ccc(NC(=O)C(=O)N2N=C3CCCCC3C2(O)C(F)(F)F)cc1 (stereo not drawn)
(16) C/C=C/C=C(/NC(=O)c1ccccc1)C(=O)Nc1ccccc1
(17) O=C(NCc1nnc(SCC(=O)N2CCCC2)o1)c1ccco1
(18) COc1ccc(OC)c(NC(=O)c2ccno2)c1
(19) CCOc1ccc(S(=O)(=O)N2CCN(C)CC2)cc1NC(=O)c1ccccc1F
(20) Cc1c2cnn(CC(=O)Nc3c(F)c(F)cc(F)c3F)c(=O)c2c(C)n1Cc1ccccc1F

compound no.	11	12	13	14	15	16	17	18	19	20
Beta cell apopt	-11	1	-2	-7	-4	-12	-14	4	1	-4
T cruzi repl	-7	21	-4	-7	-11	-5	?	-14	-4	2
ALR H2O2 inh	6	-11	.	1	-15	-9	.	.	1	-8
rRNA inh HTS	5	.	29	.	12	8	10	22	20	14
rRNA inh HTS OD600	12	.	9	.	15	21	13	26	10	18
rRNA inh HTS RFP	-1.7	.	-0.4	.	-0.5	-2.4	1.8	-6.1	6.1	5.7
AF4-AF9 inh	-1.6	.	96*	.	0.2	-1.9	0.7	0.6	-4.7	-1.6
RanGTP-Impb inh	-1.6	-3.3	-0.7	-1.2	2.7	-2.9	.	-2.4	3.3	-2.4
FGF22 binding	i	.	i	.	i	i	i	i	i	i
Calb FLC	14	57	-3	15	-2	-4	-16	1	3	-10

(21) Nc1nnc(SCC(=O)OCC(=O)Nc2ccccc2F)s1
(22) O=C(NCc1ccccc1F)c1cccc(S(=O)(=O)N2CCCCCC2)c1
(23) CCOc1ccc(S(=O)(=O)N2CCCC(C(=O)NCc3ccccn3)C2)cc1Cl (stereo not drawn)
(24) Cc1cc(=O)oc2c(C)c(OC3CCCCC3=O)ccc12 (stereo not drawn)
(25) CCOc1ccc(/C=C2\CCCc3c2nc2ccccc2c3C(=O)O)cc1OC
(26) COc1ccc(-n2c(=S)[nH]c3sc(-c4ccccc4)cc3c2=O)c(OC)c1
(27) Cc1nnc(SCCC#N)n(CCC#N)c1=O
(28) CCOc1cc(C2NC(=O)c3ccccc3O2)ccc1OC (stereo not drawn)
(29) COc1ccc(Cl)cc1NC(=O)C/C(C)=N/NC(=O)c1ccccc1[N+](=O)[O-]
(30) CC(=O)N1CCc2ccc(S(=O)(=O)N3CC(C)OC(C)C3)cc21 (stereo not drawn)

compound no.	21	22	23	24	25	26	27	28	29	30
Beta cell apopt	1	-1	.	-4	-4	6	-6	-3	-9	-10
T cruzi repl	-4	.	-3	-11	-4	7	-17	-21	-13	-5
ALR H2O2 inh	-24	0	-3	-3	-42	-9	-2	-7	-13	-3
rRNA inh HTS	18	.	-2	2	.	12	.	2	0	.
rRNA inh HTS OD600	10	.	2	5	.	4	.	4	4	.
rRNA inh HTS RFP	-1.6	.	-1.6	2.0	.	-1.0	.	-1.6	-4.0	.
AF4-AF9 inh	0.5	-0.6	2.8	-2.5	.	14	.	0.0	-2.1	-0.1
RanGTP-Impb inh	4.5	.	-4.3	-4.0	29*	-0.6	-1.1	0.7	-1.3	5.5
FGF22 binding	i	i	i	i	.	i	.	i	i	i
Calb FLC	-4	.	0	10	5	5	1	18	13	-4

(31) Cc1cc(=O)cc(C)n1-c1ccccc1Br
(32) CC(C)(C)c1ccc(N2C(=O)CC(C/C=C/c3ccccc3)C2=O)cc1 (stereo not drawn)
(33) Cc1nc2c(nnn2Cc2c(Cl)cccc2Cl)c(=O)[nH]1
(34) Cc1cc(C)nc(NC(=O)c2cccs2)n1
(35) N#Cc1ccc(OCC(=O)NNC(=S)NC(=O)C2CC2)cc1
(36) FC(F)(F)c1cccc(N2CCN(C(=S)NC3CCCC3)CC2)c1
(37) O=c1ccc2ccc(OCCOc3cccc(Cl)c3)cc2o1
(38) O=C(NCc1ccco1)/C(=C/c1cccnc1)NC(=O)c1cccc(Br)c1
(39) COc1ccc(-c2nc(CN3CCC(C(=O)NC4CCCC4)CC3)c(C)o2)cc1OC
(40) CN(C)c1ccc(/C=[N+](\[O-])C(C)(C)/C=N/O)cc1

compound no.	31	32	33	34	35	36	37	38	39	40
Beta cell apopt	-8	1	-2	1	-1	-1	-4	.	1	-6
T cruzi repl	21	1	5	-6	.	.	3	-17	8	-2
ALR H2O2 inh	-5	3	.	.	.	-12	0	-2	-6	42
rRNA inh HTS	10	5	0	8	-7	.	6	0	6	.
rRNA inh HTS OD600	0	11	-1	-4	-1	.	4	10	8	.
rRNA inh HTS RFP	-2.3	0.0	5.9	2.9	-0.6	.	-1.5	-1.6	-0.4	.
AF4-AF9 inh	-0.5	.	-5.4	-12	-2.4	.	-3.3	.	-1.3	.
RanGTP-Impb inh	-1.3	2.4	7.5	6.5	.	-0.5	2.0	-2.0	1.0	?
FGF22 binding	i	i	i	i	i	.	i	.	i	.
Calb FLC	6	-2	-10	8	.	3	-15	3	-30	25

(41) CC(C)C(=O)N1CCN(c2ccc(NC(=O)c3ccc4c(c3)OCCO4)cc2Cl)CC1
(42) O=C(OCc1ccccc1)/C(=C/c1ccccc1Cl)NC(=O)c1ccco1
(43) Cc1cc(C(=O)NCC2COc3ccccc3O2)c2ccccc2n1 (stereo not drawn)
(44) CN(Cc1nc(-c2cccnc2)no1)S(=O)(=O)c1ccccc1
(45) COCCCN1CC(=O)N2C(c3cccc(OC)c3OC)c3[nH]c4ccccc4c3C[C@H]2C1=O (stereo partly drawn)
(46) C=C[C@@H]1c2cc(C)ccc2N(S(=O)(=O)c2ccc(C)cc2)[C@H](c2ccccc2C(F)(F)F)C1(C#N)C#N
(47) COc1ccc(N=Nc2nc(-c3ccccc3)c(-c3ccccc3)[nH]2)cc1
(48) Cc1ccc(S(=O)(=O)N2CCC(C(=O)OCC(=O)N3CCCC3=O)CC2)cc1C
(49) CCOC(=O)c1[nH]c2ccc(OC)cc2c1NC(=O)CCN1CCC(C)CC1
(50) COc1cccc(NC(=O)CSc2nccn2-c2cccc(OC)c2)c1

compound no.	41	42	43	44	45	46	47	48	49	50
Beta cell apopt	16	7	0	-6	-5	19	30	-8	-1	0
T cruzi repl	7	-10	-9	-8	-1	.	30	-13	-1	-8
ALR H2O2 inh	-5	1	-2	.	-6	-8	.	-6	-10	98*
rRNA inh HTS	.	4	4	.	-4	5	-7	-1	.	.
rRNA inh HTS OD600	.	-44	13	.	4	7	-11	0	.	.
rRNA inh HTS RFP	.	-7.2	4.9	.	6.7	-3.5	4.0	-0.2	.	.
AF4-AF9 inh	.	6.5	0.5	.	1.0	5.4	7.8	-3.9	.	.
RanGTP-Impb inh	1.5	?	-3.2	8.1	-3.3	.	-12	5.6	7.4	-1.4
FGF22 binding	.	i	i	.	i	i	i	i	.	.
Calb FLC	1	9	1	-1	25	.	-1	0	12	-7

# An excerpt of these results, with each value named:
43) Cc1cc(C(=O)NCC2COc3ccccc3O2)c2ccccc2n1 (stereo not drawn)
  Beta cell apopt = 0; T cruzi repl = -9; ALR H2O2 inh = -2; rRNA inh HTS = 4; rRNA inh HTS OD600 = 13; rRNA inh HTS RFP = 4.9; AF4-AF9 inh = 0.5; RanGTP-Impb inh = -3.2; FGF22 binding = i; Calb FLC = 1
47) COc1ccc(N=Nc2nc(-c3ccccc3)c(-c3ccccc3)[nH]2)cc1
  Beta cell apopt = 30; T cruzi repl = 30; ALR H2O2 inh = .; rRNA inh HTS = -7; rRNA inh HTS OD600 = -11; rRNA inh HTS RFP = 4.0; AF4-AF9 inh = 7.8; RanGTP-Impb inh = -12; FGF22 binding = i; Calb FLC = -1

# Later entries.
(51) CCc1cc2c(COC(=O)c3cc(S(=O)(=O)N4CCOCC4)ccc3F)cc(=O)oc2cc1O
(52) Cc1nn2cc(-c3ccccc3)nc2s1
(53) COc1cccc(C(=O)Oc2cc(C)[nH]c(=O)c2[N+](=O)[O-])c1OC
(54) CC12CCC(C(=O)O)(c3nc(C#N)c(C#N)nc31)C2(C)C (stereo not drawn)
(55) Cc1nnc(NC(=O)c2ccc(S(=O)(=O)N3CCCCC3)cc2)s1
(56) CC12CCCCN1CCCc1c2[nH]c2ccccc12 (stereo not drawn)

compound no.	51	52	53	54	55	56
Beta cell apopt	-6	3	.	3	-6	-2
T cruzi repl	.	1	-5	-1	.	-10
ALR H2O2 inh	-9	-5	-8	3	-12	11
rRNA inh HTS	12	5	-1	.	10	22
rRNA inh HTS OD600	-3	-2	4	.	13	-3
rRNA inh HTS RFP	6.9	1.6	-1.1	.	-0.3	9.7
AF4-AF9 inh	2.7	-1.4	1.1	.	1.1	12&0.8
RanGTP-Impb inh	.	-0.5	0.5	2.4	.	-23
FGF22 binding	i	i	i	.	i	i
Calb FLC	.	-16	7	-2	.	-15

# A portion of the library; the hit share may differ from the screen's.
